Source: PubChem BioAssay (PCMD)
Calb biofilm kill: mixtures killing C. albicans biofilm; C. albicans biofilm persisters + clotrimazole, fluorescence viability; primary screen in compound mixtures of four per well; inhibition, % at 7.6 µM; 120,000 tested, 0.02% active; AID 1242;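 active = inhibition above 30.3% in the primary screen of four-compound pools, then above 30% when the compound was retested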;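 also: compounds exposed to preformed 24 h biofilms for 48 h; the number belongs to the whole pool; some results filed as inactive read as strong as hits; inactives centre near 12; 0% = biofilm with clotrimazole alone and 100% = kill control; retested singly at about 60 µM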
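Probe or stimulus – Clotrimazole 50 µg/mL co-treatment · System – C. albicans biofilms · Schedule – 24 h biofilm formation, then 48 h compound exposure, 37 °C · Evaluation – percent inhibition of biofilm viability · Technique – 2-h Alamar Blue fluorescence, 535/590 nm excitation/emission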
Active calls of the source: *. Not all compounds are listed (hit frequency here may not be typical).

SMILES | Calb biofilm kill
COc1ccc(CCN(C)Cc2nc(Cc3ccc(OC)c(OC)c3)no2)cc1OC | 9.3
CC(=O)CC1(O)C(=O)Nc2ccccc21 (stereo unspecified) | 2.5
O=C(c1nc2ccccn2c1CNCCCn1ncc2ccccc21)N1CCOCC1 | 12.5
CC(C)OCCCNCC(O)c1ccccc1 (stereo unspecified) | 12.4
Cc1[nH]nc2c1C(c1ccc(N(C)C)cc1)C1=C(CC(C)(C)CC1=O)N2 (stereo unspecified) | 6.9
O=C(O)/C=C(\Oc1ccccc1)C1(O)CCCCC1 | 11.1
COC(=O)c1c(NC(=S)NC(=O)c2ccco2)sc2c1CCCC2 | 19.8
O=C(O)CCCCCn1c(SCc2cc(=O)n3cc(Cl)ccc3n2)nc2ccsc2c1=O | 13.9
O=C(COC(=O)[C@@H]1CCCN1S(=O)(=O)c1ccc(Cl)cc1)NCC(F)(F)F | 10.3
N#Cc1c(-c2ccccc2)c(C#N)c2nc3ccccc3n2c1N | 23.1
CC(C)NC(=O)COc1nncc2ccccc12 | 4.2
C#CCOCCOCCOCCNc1nc(N2CCN(C(=O)[C@H]([C@@H](C)CC)n3cc([C@@H](N)CO)nn3)CC2)nc(N2CCN(C(=O)[C@H](Cc3cc4ccccc4[nH]3)n3cc([C@@H](N)C(C)CC)nn3)CC2)n1 (stereo partly specified) | 21.0
COc1ccc2c(c1)CCN=C2Cc1ccc(OC)c(OC)c1 | 9.1
CC12CCC(C(=O)N(CC(O)CN3CCCCCC3)C1=O)C2(C)C (stereo unspecified) | 21.3
CCOc1ccc(N2C(=O)CC(S/C(N)=N/N=C/c3cccs3)C2=O)cc1 (stereo unspecified) | 11.1
CCOC(=O)C1=CN(CC2CCCO2)C=C(C(=O)OCC)C1c1ccccc1C(F)(F)F (stereo unspecified) | 19.5
COc1ccccc1NC(=O)COC(=O)c1ccccc1OCC(=O)Nc1ccc(SC(F)F)cc1 | 23.4
Cc1nc(C)c(CCNC(=O)c2ccccc2)s1 | 6.1
COc1cnc(-c2ccccn2)nc1NC(C)C | -1.8
Cc1ccc(S(=O)(=O)CCc2nnc(NC(=O)C3CCCCC3)s2)cc1 | 26.5
Cc1c(Cl)cccc1N/C(SCC(=O)N1CCCCCC1)=C(/C#N)c1nc2ccccc2s1 | 8.4
O=C(CCCCCNC(=O)c1ccccc1)N/N=C/c1ccccc1O | 1.7
CN1CCN(C(=O)CCc2ccc(S(=O)(=O)NC3CCCCC3)cc2)CC1 | 19.6
CCN(CC)S(=O)(=O)c1ccc(NC(=O)c2cc(-c3cccs3)nc3ccccc23)cc1 | 14.1

Copied from the list.
Calb biofilm kill, COc1cnc(-c2ccccn2)nc1NC(C)C → -1.8
Calb biofilm kill, CCN(CC)S(=O)(=O)c1ccc(NC(=O)c2cc(-c3cccs3)nc3ccccc23)cc1 → 14.1

The listing continues.
SMILES | Calb biofilm kill
Nc1nc(-c2ccc(Cl)cc2)nn1C(=O)c1cccs1 | 14.3
CC(C)N=c1scc(-c2cccs2)n1/N=C/c1ccc(O)c(O)c1O | 7.7
COc1ccc(CCNC(=O)Cn2cnc3c(nnn3Cc3ccccc3F)c2=O)cc1OC | 17.1
O=C(Cc1ccccc1F)Nc1cccc2cccnc12 | 9.9
COC(=O)c1ccc(-c2ccc(/C=N/N3C(=O)C4C5C=CC(CC5)C4C3=O)o2)cc1 (stereo unspecified) | 5.1
C/C(=N\NC(=O)CN1CCN(Cc2ccccc2)CC1)c1cccs1 | 27.6
O=C(COC(=O)C12CC3CC(CC(C3)C1)C2)Nc1ccccc1F | 12.2
CCCC(=O)C1=C(O)C(C(=O)OC)C(C)(C)CC1=Nc1ccc(OC)cc1 (stereo unspecified) | 12.5
CCCOc1ccc(/C=C2\SC(=S)N(CC3CCCO3)C2=O)cc1 (stereo unspecified) | 13.9
COCCSc1nnc(NC(=O)c2cc(C(=O)OC)cc([N+](=O)[O-])c2)s1 | 14.0
COc1ccc(NC(=O)c2ccc(CNc3c(N4CCCC4)c(=O)c3=O)cc2)cc1Cl | 26.3
COc1cc2[nH]c3c(=O)n(CCN4CCOCC4)cnc3c2cc1OC | 8.4
Cc1ccc(C(c2nnnn2C2CCCC2)N2c3ccccc3CC2C)cc1 (stereo unspecified) | 3.8
C/C(=N\O)C(=O)NCCCn1ccnc1 | 7.2
Fc1ccc(Nc2nnns2)cc1 | 17.0
O=S(=O)(c1ccc(C(F)(F)F)cc1)N1CCCN(c2ccc(C(F)(F)F)cn2)CC1 | 2.1
COc1ccc(C(=O)Nc2c(C)ccc3nsnc23)cc1[N+](=O)[O-] | 15.5
CC(C)(CN1CCC(Cc2ccccc2)CC1)NS(=O)(=O)c1ccccc1 | 18.6
CCC1=NN(C(=O)COc2ccccc2)C(O)(c2ccncc2)C1 (stereo unspecified) | 12.7
COc1cccc(NC(=O)CN(Cc2ccccc2)S(C)(=O)=O)c1 | 6.7
Cc1onc(-c2cccc(Cl)c2Cl)c1C(=O)O/N=C(\N)c1ccc([N+](=O)[O-])o1 | 19.4
CC1(C(=O)NCc2ccccn2)C=CCN1C(=O)c1ccccc1 (stereo unspecified) | -0.9
O=[N+]([O-])c1ccc(Cc2nnc(-c3ccc(F)cc3)o2)cc1 | 15.9
O=C(NCc1ccccc1)c1ccccc1Br | 8.6
COc1ccc(NC(=O)CN(C)CC(=O)Nc2ccc(Cl)cc2F)cc1 | -5.0
CCOC(=O)C1=C(C)NC(C)=C(C(=O)OCCNC(=O)c2cccnc2)C1c1cccc([N+](=O)[O-])c1 (stereo unspecified) | 9.4
Cc1ccc(S(=O)(=O)CCC(=O)OCc2ccc(Cl)cc2)cc1 | 6.1
CC(=O)c1ccc(NC(=O)c2ccn(C(=O)OCC(C)C)n2)cc1 | 12.1
NS(=O)(=O)c1ccc(NC(=O)c2ccc(COc3ccccc3)o2)cc1 | 15.2
O=C(CCCN1C(=O)c2cccc3cccc(c23)C1=O)NCCN1CCOCC1 | 3.5
O=C(COC(=O)c1cccc2ccccc12)Nc1cccnc1Cl | 12.2
COc1ccc(N2C(=O)CC(N(C)CCc3ccc(OC)c(OC)c3)C2=O)cc1 (stereo unspecified) | 3.6
CCOC(=O)C1CCN(c2ccc(Cl)nn2)CC1 | 30.5
CC(C(=O)NC1CCCCC1)N1CCN(C)CC1 (stereo unspecified) | 20.6
O=C1CCC/C(=N/NC(=O)C2CCN(S(=O)(=O)c3cccs3)CC2)C1 | -2.3
CCCOc1ncnc2c1sc1nc3c(cc12)COC(C)(C)C3 | 32.0
NS(=O)(=O)c1ccc(Nc2ccc3nonc3c2[N+](=O)[O-])cc1 | 12.8
CCN(CC)CCC#CC(O)(c1ccccc1)c1ccccc1 | 16.6
CCOc1ccc(N2CC(C(=O)Nc3ccc(N4CCOCC4)cc3)CC2=O)cc1 (stereo unspecified) | 6.2
CC(c1ccon1)N(C)Cc1cn[nH]c1-c1ccc(F)cc1F (stereo unspecified) | 23.6
COc1ccc(-c2[nH]ncc2CN(C)C(C)c2cccs2)c(F)c1 (stereo unspecified) | 9.1
CC(C)Cc1nn2c(=O)cc(O)nc2s1 | 17.7
COc1ccc(-c2cc3cc(OC)c(OC)cc3c(C)n2)cc1C | 12.8
CCN(CC)S(=O)(=O)c1ccc(Cl)c(NC(=O)COC(=O)c2cccn2C)c1 | 5.0
O=C(N/N=C/C=C/c1ccccc1)c1ccncc1 | 6.8
CCNC(=S)N(Cc1ccccc1)Cc1nc2ccccc2c(=O)[nH]1 | 5.6
Cc1ccc(C2=CC(C)(c3ccc(C)cc3)Nc3nc(C(F)(F)F)nn32)cc1 (stereo unspecified) | 5.3
Cc1cccc(Oc2ncnc(N)c2[N+](=O)[O-])c1C | 12.8
S=C(NN=C1CCN(Cc2ccccc2)CC1)NC1CCCCC1 | 9.2
O=C(O)CCN=Cc1c(O)c2ccccc2oc1=O | 4.2
CN(C)CC1CCCCC1OC(=O)c1ccc(Cl)cc1Cl (stereo unspecified) | 15.1
COc1ccc(O)c(C(=O)c2cnn(-c3ccccn3)c2)c1 | 11.6
CCCCCn1c(=O)c(C(=O)OCC)c(Cl)c2ccccc21 | 30.5
CC(C)CSc1nc2ccccc2n1CC(=O)O | 2.3
Cn1nccc1NS(=O)(=O)c1ccc(NC(=O)C(F)(F)F)cc1 | 12.2
CCC(C(=O)OCC(=O)Nc1ccc(C(=O)Nc2ccc(OC)cc2)cc1)c1ccccc1 (stereo unspecified) | 8.3
Cc1ccc(-c2nc3ncccc3o2)cc1NC(=O)c1cccs1 | 5.8
O=c1c2ccccc2ncn1Cc1ccccc1 | 21.5
Cc1cccc(NC(=S)NCCc2ccccc2)n1 | 16.6
O=C(NCCCNc1ccc([N+](=O)[O-])cc1Cl)c1ccccc1F | 11.3
Going on with the list:
SMILES | Calb biofilm kill
CCNC(=S)SCCOc1ccc(C)cc1 | 5.9
N=C1SCC(=O)N1c1ncc(Cc2cccc(Cl)c2)s1 | 22.9
COc1ccc(COCCN2CCN(S(=O)(=O)c3ccc(C)cc3)CCC2=O)cc1 | 17.9
Cc1c(N2C(=O)/C(=C/C3CC=CCC3)SC2=S)c(=O)n(-c2ccccc2)n1C (stereo unspecified) | 21.0
COc1ccc(N2C(=O)CC(Sc3nc4c(cc3C#N)CCC4)C2=O)cc1 (stereo unspecified) | 19.2
Cc1ccc(N2C(=O)C3C4C=CC(CNC(=S)N5CCN(c6cccc(C)c6)C(C)C5)(O4)C3C2=O)cc1 (stereo unspecified) | 11.3
Cc1cccc(-n2c(-c3ccncc3)n[nH]c2=S)c1C | 18.9
CC(=O)NC(=S)Nc1ccc(NC(=O)c2cccnc2)cc1 | 26.7
CC1=CS(=O)(=O)CC1Sc1ncn[nH]1 (stereo unspecified) | 21.4
COc1ccc(NC(=S)N(CCCN2CCOCC2)Cc2ccccn2)cc1 | 17.7
CC1(C)Cc2nc3sc4c(N(CCO)CCO)nnnc4c3cc2CO1 | 25.1
Cn1cc(P(=S)(N2CCOCC2)N2CCOCC2)cc1P(=S)(N1CCOCC1)N1CCOCC1 | 13.6
CCC(=O)NCCc1nc2ccccc2n1Cc1ccccc1 | 9.4
N/C(=N\OC(=O)CCC1CCCC1)c1cccc([N+](=O)[O-])c1 | 14.7
CN(C)c1nc(N)c([N+](=O)[O-])c(NCCO)n1 | 10.2
CCOc1ccc(OCC)c(NC(=O)CCSCCc2ccccn2)c1 | 15.0
CC1CC(CC(=O)NNc2nc(-c3ccccc3)cs2)C(=O)O1 (stereo unspecified) | 10.5
COc1ccccc1OCCSc1nc(C)c(Cc2ccccc2)c(=O)[nH]1 | 20.4
COc1ccc(NC(=O)CN(C)CC(=O)Nc2cccc(C(F)(F)F)c2)cc1 | 12.1
O=S(=O)(NCc1ccccc1F)c1cccc(S(=O)(=O)N2CCOCC2)c1 | -0.6
Cc1cc(Cl)ccc1NC(=S)NCc1ccco1 | 16.1
Cc1ccccc1NC(=S)NCCc1ccccc1 | 12.9
O=C(c1ccccn1)N1CCN(S(=O)(=O)c2ccc3ccccc3c2)CC1 | 24.0
CC(=O)COc1nc2c(c(-c3ccco3)c1C#N)CCc1ccccc1-2 | 21.3
O=C(O)c1cc(-c2cccs2)nn1-c1ccccc1 | 11.6
O=C(NC1CCCCCC1)C(=S)NC1CCCCC1 | 4.5
COC(C[C@@H]1O[C@@H]1[C@H](O)[C@H](C)OCc1ccccc1)OC | 18.7
CC(=N[C@@H]1CCCC[C@H]1N=C(C)c1ccccc1O)c1ccccc1O | 2.2
COc1ccc(CCN2C(=S)N(C)C(=O)C2CC(=O)Nc2ccc(F)cc2)cc1 (stereo unspecified) | 11.8
CCOC(=O)c1cc(-c2csc(Nc3c(C)cc(C)cc3C)n2)on1 | 14.8
COCCNC(=O)C(c1cccs1)N(C(=O)Cn1nnc2ccccc21)c1ccc(OC)cc1 (stereo unspecified) | 4.6
O=C1CCCN1CCCNS(=O)(=O)c1ccc(F)cc1F | 13.9
O=S(=O)(c1ccccc1)C1CON(Cc2ccccc2)C1c1ccccc1 (stereo unspecified) | 6.7
COC(=O)CSc1[nH]c2ccc(Br)cc2c1[N+](=O)[O-] | 17.1
COc1ccc(OCCC(=O)N2CCOCC2)cc1 | -22.1
NC(=O)NC(=O)COC(=O)c1ccc(OC(F)(F)F)cc1 | 6.3

Sorted by molar mass (largest number first): part of the list above.
SMILES | Calb biofilm kill
COc1ccc(CCN2C(=S)N(C)C(=O)C2CC(=O)Nc2ccc(F)cc2)cc1 (stereo unspecified) | 11.8
COC(C[C@@H]1O[C@@H]1[C@H](O)[C@H](C)OCc1ccccc1)OC | 18.7
O=C(O)c1cc(-c2cccs2)nn1-c1ccccc1 | 11.6

Returning to the listing, starting four compounds before the break.
SMILES | Calb biofilm kill
O=S(=O)(c1ccccc1)C1CON(Cc2ccccc2)C1c1ccccc1 (stereo unspecified) | 6.7
COC(=O)CSc1[nH]c2ccc(Br)cc2c1[N+](=O)[O-] | 17.1
COc1ccc(OCCC(=O)N2CCOCC2)cc1 | -22.1
NC(=O)NC(=O)COC(=O)c1ccc(OC(F)(F)F)cc1 | 6.3
CCC/C(=N/NC(=O)c1cccc(Cl)c1)c1ccccc1 | 16.6
Cc1ccc(Cl)cc1-c1ccc(C=Nc2ccc(N3CCOCC3)cc2)o1 | 18.9
CN1/C(=C\C(=O)COC(=O)c2ccco2)C(C)(C)c2ccccc21 | 12.3
N#C/C(=C\c1cn(Cc2cccc(F)c2)c2ccccc12)C(=O)NCc1ccco1 | 9.6
COc1cc(C(=O)NCC(=O)N/N=C(/C)c2ccc3c(c2)CCCC3)cc(OC)c1OC | 3.4
CCN(CC)CCN1C(=O)C(=O)/C(=C(/O)c2ccc(Cl)cc2)C1c1ccncc1 (stereo unspecified) | 8.0
COc1ccccc1N(Cc1cc(=O)[nH]c2ccccc12)C(=O)c1ccc([N+](=O)[O-])cc1 | 4.7
COc1cccc(/C=N/n2c(-c3ccco3)nc3ccccc3c2=O)c1OC | 17.8
COc1ccc(NC(=O)c2ccc([N+](=O)[O-])cc2[N+](=O)[O-])c(OC)c1 | 11.0
N#CCCN(C(=O)CSc1nc2nc(-c3cccs3)cc(C(F)(F)F)c2c(=O)[nH]1)c1ccccc1 | 6.6
